High-throughput results deposited in PubChem by National Center for Advancing Translational Sciences (NCATS).
Six1-Eya2 blk: qHTS Assay for Inhibitors of the Six1/Eya2 Interaction; AID 651725, 2012; AlphaScreen GST-Six1/His-Eya2 binding, biochemical; hits give low values; control for the full effect not named in the record; activity change, % (no concentration beside the values); Homeobox protein SIX1 (Homo sapiens) + Protein phosphatase EYA2 (Homo sapiens), …; hit rate 0.56% among 360,000; in the data active = activity change below about -65%; inconclusive = about -30% to -65%; inactive = above about -30%; note: % is set by controls: 0 for no effect and ±100 for the full control effect; compound concentration not given in the record
Target sequence (O00167 whole entry, looked up): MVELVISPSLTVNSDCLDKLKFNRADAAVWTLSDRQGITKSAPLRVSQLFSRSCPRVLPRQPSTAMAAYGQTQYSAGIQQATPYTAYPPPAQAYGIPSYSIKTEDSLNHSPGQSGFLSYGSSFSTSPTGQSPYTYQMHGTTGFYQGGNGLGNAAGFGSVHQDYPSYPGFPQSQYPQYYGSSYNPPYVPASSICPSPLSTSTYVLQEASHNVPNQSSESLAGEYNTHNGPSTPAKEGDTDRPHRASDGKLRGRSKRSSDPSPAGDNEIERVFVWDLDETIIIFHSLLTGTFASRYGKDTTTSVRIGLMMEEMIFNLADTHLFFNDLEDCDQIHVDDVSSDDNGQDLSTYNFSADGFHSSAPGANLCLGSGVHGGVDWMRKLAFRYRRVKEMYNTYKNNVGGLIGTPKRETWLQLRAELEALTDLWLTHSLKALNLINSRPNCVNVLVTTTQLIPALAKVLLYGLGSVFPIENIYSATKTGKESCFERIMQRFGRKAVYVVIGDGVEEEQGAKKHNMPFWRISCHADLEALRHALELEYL
Target sequence (Q15475 whole entry, looked up): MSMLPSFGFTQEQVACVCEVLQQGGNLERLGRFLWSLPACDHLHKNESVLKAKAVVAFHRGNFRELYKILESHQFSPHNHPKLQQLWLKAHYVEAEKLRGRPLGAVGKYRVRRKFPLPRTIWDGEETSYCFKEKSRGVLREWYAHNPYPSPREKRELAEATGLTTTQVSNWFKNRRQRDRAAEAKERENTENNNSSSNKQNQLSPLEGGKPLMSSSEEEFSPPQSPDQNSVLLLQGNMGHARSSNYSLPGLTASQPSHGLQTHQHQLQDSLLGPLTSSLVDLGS
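AlphaScreen with GST-Six1 and His-Eya2 (5X mix: 250 nM and 500 nM), glutathione donor and nickel acceptor beads; buffer 50 mM Tris pH 8.0, 300 mM NaCl, 1 mM TCEP; 1 h at 37 C in the dark.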
D2 ag: Beta-Arrestin HTS for Positive Allosteric Modulators of the Human D2 Dopamine Receptor: Agonists. activation, % (test concentration not listed). D(2) dopamine receptor (Homo sapiens), P14416. DiscoveRx PathHunter D2 beta-arrestin, luminescence, 90 min; 100% = 57 uM dopamine signal. hit rate 0.084% among 360,000. AID 624465, 2012; in the data active = activation above about 40%; inconclusive = about 15% to 40%; inactive = below about 15%; note: compound concentration not given in the record; the text of the record calls up to 30% inactive
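Agonist mode: compounds alone added to overnight-plated D2 PathHunter cells for 90 min at 37 C, with 57 uM final dopamine (EC100) defining full response. Beta-arrestin recruitment detected by chemiluminescent reagent, read after 1 h at ambient temperature.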
PINK1 modulator: A Quantitative High throughput Screen to Identify Chemical Modulators of PINK1 Expression. hit rate 0.2% among 410,000. PINK1 immunofluorescence, high-content cytometry, 24 h. Potency, µM (top dose mostly 76.6 µM), for inactives: top-dose activation (PINK1 increase), actives largely listed as activators. AID 624263, 2012; active = well fitted activation curve with a large enough effect; inconclusive = small, poorly fitted or top-dose-only effect; inactive = flat fitted curve, though single readings scatter; cell line not stated here;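 note: potency is the fitted concentration of half-maximal effect; % of control where 0% means no effect; nearly all actives have a fitted effect of over 65% in size; a mitochondrial uncoupler was the plate control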
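Compound titrations (5 concentrations, 24 h) on a stable cell line; DMSO and CCCP controls. Endpoint: fixed-cell PINK1 immunofluorescence with mitochondrial, cell and nuclear markers, scanned by microplate cytometer.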
CtBP-E1A blk: qHTS Assay for Inhibitors of the CtBP/E1A Interaction; activity change, % (test concentration not listed); AID 651724, 2012; AlphaScreen GST-E1A/His-CtBP binding, 1536-well; hits give low values; control for the full effect not named in the record; hit rate 0.49% among 340,000; CtBP / adenovirus E1A interaction (AlphaScreen); in the data active means activity change below about -65%; inconclusive means about -30% to -65%; inactive means above about -30%; note: % is set by controls: 0 for no effect and ±100 for the full control effect; compound concentration not given in the record
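In 5 uL wells, 23 nL compound meets equimolar GST-E1A and His-CtBP (5X stock 125 nM each) for 2 h, 37 °C. Beads (5X, 50 ug/mL) then 1 h, 37 °C, dark.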
TRPML1 agonist: qHTS for Agonists of the Human Mucolipin Transient Receptor Potential 1 (TRPML1); Mucolipin-1 (Homo sapiens), Q9GZU1; TRPML1-expressing cells, Ca2+ dye fluorescence, FDSS; host cell line not named in the record; reference of the full effect not given here; activation, % (concentration not given with the values); hit rate 0.12% among 410,000; AID 624414, 2012; in the data active = activation above about 50%; inconclusive = about 30% to 50%; inactive = below about 30%; note: 0% is about no effect; the text of the record puts the active cut at 80%
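Kinetic FDSS Ca2+ read in Tet-induced TRPML1-DL cells (ABD Ca8 dye plus quencher, 45-90 min RT loading): baseline, then compound, then 110 s agonist window; EC80 agonist 54-4 at 4uM final added afterwards for a 110 s antagonist window.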
TRPML1 inh: qHTS for Inhibitors of the Human Mucolipin Transient Receptor Potential 1 (TRPML1); Mucolipin-1 (Homo sapiens), Q9GZU1; TRPML1-inducible cells, Ca2+ dye fluorescence, FDSS; hits give low values; inhibition of EC80 agonist-evoked calcium signal; activity change, negative = inhibition, % (concentration not given with the values); hit rate 0.02% among 390,000; AID 624415, 2012; in the data active means activity change below about -50%; inconclusive means about -30% to -50%; inactive means above about -30%;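 note: stimulus is agonist 54-4 at its EC80 concentration; % is set by controls: 0 for no effect and ±100 for the full control effect; compound concentration not given in the record; the text of the record puts the active cut at -80%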
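Tet-induced TRPML1-DL cells loaded with Ca8 no-wash calcium dye were read kinetically on FDSS. Compound addition was followed by EC80 agonist 54-4 (4 uM final); inhibition was read over 110 s.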
Starred values were filed as active, the others as inactive; ? = inconclusive; · = no result given; & = joins results of further samples; [ ] = remark or other dose.

compound	Six1-Eya2 blk	D2 ag	PINK1 modulator	CtBP-E1A blk	TRPML1 agonist	TRPML1 inh
COC(=O)CN1C(CN2CCOCC2)=Nc2ccc(Br)cc2C1c1ccccc1 (stereo not drawn)	-9	-3.1	2.1%	-9	-0.1	-6
CSc1ccccc1CNC(=O)C1(C)CCCN1CC(C)C (stereo not drawn)	-1	-7.5	9.0%	-3	0.6	·
O=C(NCCc1ccc(Cl)cc1Cl)c1cncc(Br)c1	8	3.4	2.3%	·	2.0	-9
Nc1ncnc(Nc2cccc(F)c2)n1	10	-3.7	-0.1%	0	-0.5	-15
CC(C)CC(=O)NC(NCC1CCCO1)C(Cl)(Cl)Cl (stereo not drawn)	19	-1.3	0.3%	3	-1.3	-14
CCCCOc1ccc(/C=c2\sc3ncnn3c2=O)cc1	5	-0.8	1.2%	5	-0.6	11
C=CCn1cnc2c(c1=O)c1nc3ccccc3nc1n2/N=C/c1cccc(OC)c1	-1	-2.6	2.9%[38.3 µM]	2	-0.5	-12
O=C(O)c1cc([N+](=O)[O-])ccc1N1CCCCC1	11	-4.7	-1.8%	10	-0.1	-7
COc1cc(OC)cc(-c2nc3n(n2)C(c2ccccc2)C(C(N)=O)=C(C)N3)c1 (stereo not drawn)	·	·	1.7%	·	-0.1	1
Cc1cc(C)cc(NC(=O)CSc2nccn2C2CCCC2)c1	·	·	-0.2%	·	2.7	15
O=C(O)Cc1ccc(-c2ccccc2)cc1	5	-2.7	1.3%	7	-0.2	5
COc1ccc(NS(=O)(=O)c2cc3c(cc2C)NC(=O)CO3)c(OC)c1	-1	2.6	0.9%&0.1%	2	0.0&-0.2	5&15
Cc1cc(C(=O)CN2C(=O)NC3(CCCc4sccc43)C2=O)c(C)n1-c1ccccc1 (stereo not drawn)	-1	-1.7	2.2%	0	0.1	12
O=C(COc1ccccc1Cl)NCCNC(=O)c1ccccn1	6	-4.7	-0.4%	3	-0.7	-29
C[C@]12c3[nH]c4cc(-c5ccco5)ccc4c3CCN1C(=O)[C@@H](CC(=O)NCC13CC4CC(CC(C4)C1)C3)C[C@@H]2C(=O)N1CCCCC1	-17	-0.4	1.1%	-17	0.5	63
CCc1nc2ccc(C(=O)NCCN3CCOCC3)cn2c1N(C)Cc1ccc(OC)cc1	-8	-9.2	0.8%	0	0.4	-2
CCCCCCCCCc1nc2sc3c(c2c(=O)n1NC(=O)c1ccc([N+](=O)[O-])cc1)CC(C)(C)OC3	-8	-6.3	13µM*	10	-0.1	20
Cn1c(CO)cnc1SCC(=O)c1ccc(Cl)cc1	7	-1.4	0.0%	12	-0.7	8
O=C(OCCCCN1C(=O)c2ccccc2C1=O)c1n[nH]c2ccccc12	-4	0.9	-3.9%	-13	3.1	2
N#C/C(=C(/O)COC(=O)COc1ccc(Cl)cc1)c1nc2ccccc2[nH]1	-9	-0.3	8.2%	-12	2.8	-17
CC(C)OC(=O)Nc1ccc2c(c1)N(C(=O)CCN1CCOCC1)c1ccccc1CC2	0	0.2	3.8%	3	-0.8	21
N#CCC(=O)Nc1ccc(C(=O)OCC(=O)c2ccc3c(c2)OCO3)cc1	-12	-0.8	0.1%	-12	2.2	0
Cc1nc2cc(Cl)ccc2c(=O)n1Cc1ccncc1	4	4.8	-0.2%	·	0.9	16
CCN(CC)C(=O)C1CCCN(c2ncnc3onc(C)c23)C1 (stereo not drawn)	·	·	0.5%	·	-0.5	18

Quoted at random: 2 records from the list
compound	Six1-Eya2 blk	D2 ag	PINK1 modulator	CtBP-E1A blk	TRPML1 agonist	TRPML1 inh
CCN(CC)C(=O)C1CCCN(c2ncnc3onc(C)c23)C1 (stereo not drawn)	·	·	0.5%	·	-0.5	18
O=C(OCCCCN1C(=O)c2ccccc2C1=O)c1n[nH]c2ccccc12	-4	0.9	-3.9%	-13	3.1	2

The results go on:
compound	Six1-Eya2 blk	D2 ag	PINK1 modulator	CtBP-E1A blk	TRPML1 agonist	TRPML1 inh
c1ccc(N2CCCCC2)c(Nc2nc3ccccc3n3cnnc23)c1	6	-0.6	0.2%	5	0.0	16
Nn1c(COc2ccccc2F)nnc1SCC(=O)NC1CCS(=O)(=O)C1 (stereo not drawn)	-1	-2.8	-0.3%	-1	-0.7	-3
Cc1ccccc1S(=O)(=O)Cc1ccc(C(=O)NCCN(Cc2ccccc2)C(C)C)o1	-13	-3.0	0.4%	0	-0.6	5
O=C(OC(C(=O)NCc1ccco1)C(OC(=O)c1ccccc1)C(=O)NCc1ccco1)c1ccccc1 (stereo not drawn)	8	-2.1	8.0%	-8	0.1	5
COc1ccc(NC(=S)NC(NC(=O)c2cccc3ccccc23)C(Cl)(Cl)Cl)c([N+](=O)[O-])c1 (stereo not drawn)	-20	-5.7	·	6	1.3	-7
CCCCNC(=S)NNC(=O)c1csc(C)c1CC	-7	-8.2	-0.6%	-11	-1.1	-24
Cc1occc1C(=O)N1CCCC(N2CCN(c3cccc(Cl)c3)CC2)C1 (stereo not drawn)	-8	-2.1	1.2%	-6	0.0	29
NNC(=O)c1oc2nc(-c3ccccc3)cc(-c3ccco3)c2c1N	-1	8.9	1.1%	14	0.7	-3
C=Cn1cc[n+](CC(=O)c2ccc(Br)cc2)c1	3	1.5	-0.1%	·	-0.3	5
CCOC(=O)C1CCCN(S(=O)(=O)c2c(C(=O)N3CCCCC3)c(C)n(C)c2C)C1 (stereo not drawn)	1	-1.4	0.8%	6	-1.6	1
COc1ccc(OC)c(NC(=O)Nc2ccc(O)c3ccccc23)c1	-29	?	1.1%	?	0.7	-1
CC(=O)c1ccc(OCCCC(=O)N2CCN(S(=O)(=O)c3ccc(C)cc3C)CC2)cc1	-11	-1.4	0.0%	-3	1.2	-3
CCc1cccc(C)c1NC(=O)Cn1c(=O)n(-c2cccc(C)c2)c(=O)c2c1c1cc(C)ccc1n2C	·	·	0.5%	·	0.8	0
COc1ccc(OC)c(NC(=O)C(CC(C)C)NC(=O)C2CCCCC2)c1 (stereo not drawn)	-8	-0.8	3.9%	-2	-0.5	-12
N=c1c2c(ncn1CCCO)Oc1cc(O)ccc1C2c1ccccc1 (stereo not drawn)	13	0.8	3.5%	-1	0.8	3
O=C(NCCN1CCOCC1)c1cc(-c2cccs2)on1	-9	-1.0	-4.7%[38.3 µM]	-10	-0.2	-11
O=C(CCNC(=O)c1ccco1)Nc1ccc(OC(F)F)c(Cl)c1	-6	-6.1	1.8%	-10	0.8	13
CCOC(=O)c1ccc(NC(=O)c2nc[nH]c2C(=O)NC)cc1	2	1.8	2.0%	1	-0.7	-6
COc1ccc(C2C(=O)N(C3CCCCCC3)CC(=O)N2CCc2ccc(OC)c(OC)c2)cc1 (stereo not drawn)	·	·	0.8%	·	-0.3	-7
C[C@H](CO)N1C[C@H](C)[C@@H](CN(C)Cc2ccncc2)Oc2c(NS(=O)(=O)c3ccccc3)cccc2C1=O	2	0.5	1.8%	-1	-0.7	1
Cc1cccnc1NC(=O)c1c(O)c2cccc3c2n(c1=O)CCC3	1	0.9	1.3%	-6	-0.3	29
CC(C)(C)CN1CCN(Cc2c[nH]c3ccccc23)CC1CCO (stereo not drawn)	-10	-5.9	0.7%	3	-0.6	-7
COc1cc(-n2c(=O)c3ccccc3n(CC(=O)OCc3ccccc3)c2=O)cc(OC)c1OC	8	0.1	0.7%	3	-0.6	4
COC(=O)c1ccc(COc2ccc(/C=N/NC(N)=S)cc2)o1	25	-1.8	9.2%	0	1.2	-14
O=C(CNC(=O)c1cccc(F)c1)OCC(=O)N1CCN(C(=O)c2ccco2)CC1	9	-0.5	2.3%	9	-0.7	-2
CCOc1ccc(CCNC(=O)c2oc(=O)c3ccccc3c2-c2ccc(C)cc2)cc1OCC	·	·	0.4%	·	2.0	46
O=C(CCN1C(=O)c2ccccc2C1=O)Nc1nc2ccccc2s1	-1	-1.3	4.5%	2	0.7	4
Cc1ccc2oc(=O)c3cc(C(=O)NCCc4ccc(Cl)cc4)sc3c2c1	·	·	1.1%	·	-1.0	1
O=C(NCCCCNCCCNC(=O)c1ccccc1)c1ccccc1	5	-2.0	1.3%	0	·	·
CCOC(=O)CNC(=O)CSc1nnc(SCC(=O)NCC(=O)OCC)s1	2	3.7	10.0%[38.3 µM]	0	1.0	-9
C=CCN(c1ccccc1)S(=O)(=O)c1cccc(C(=O)NC2CCN(Cc3ccccc3)CC2)c1	-10	-3.6	-2.1%	-1	0.9	1
CC(C)(C)OC(=O)N1CCC(CC2CC(c3ccncc3)=NO2)(C(=O)O)CC1 (stereo not drawn)	2	-5.1	-0.1%	5	-0.7	-8
COc1ccc(C(=O)NC2CCN(C(=S)Nc3ccccc3C)CC2)cc1	1	3.0	-0.1%	5	-1.0	14
O=C(Nc1ccccn1)C12CC3CC(C1)CC(C(=O)Nc1ccccn1)(C3)C2	-2	-3.0	-0.2%	3	-0.6	15
Cc1ccc(Nc2c([N+](=O)[O-])c(=O)n(C)c3ccccc23)cc1	-4	-3.7	2.6%	-12	-0.2	-4
CC1CCc2sc(C(=O)NCc3ccc(F)cc3)cc2C1 (stereo not drawn)	8	-0.5	-0.4%	18	0.9	-13
O=C(Cn1c(C(F)(F)F)nc2ccccc21)N=Nc1c(O)[nH]c2ccc(Br)cc12	-7	-1.1	-0.4%	·	0.3	0
O=C(CCC(=O)N1CCOc2ccccc21)NCc1ccccn1	1	-1.3	0.2%	10	-0.2	15
Cc1ccc(-n2nc3c(N4CCC(C(=O)N5CCCCC5)CC4)nnc(C)c3c2C)cc1	·	·	-1.0%	·	2.3	16
CC(C)N(C(=O)[C@H]1C[C@H](CC(=O)NC(C)(C)C)C(=O)N2CCc3c([nH]c4cc(CCC(=O)N(C)C)ccc34)[C@]12C)C(C)C	4	-1.5	-0.7%	2	2.0	-5
C[C@@]12C(=O)N(CC3CCCO3)CC(=O)N1[C@H]1c3cc(Cl)ccc3OC[C@@H]1[C@@H]2c1ccccc1 (stereo partly drawn)	-12	-1.5	1.7%	0	-0.7	3
Cc1ccc(CNc2ncnc3c2cnn3C2CCCCO2)cc1 (stereo not drawn)	5	-2.2	-1.2%	-3	1.9	-6
